Sa RN4220 lethal: kills Staphylococcus aureus RN4220; AID 1259311; inhibition, % (concentration not given with the values); 0.33% of 330,000 active; S. aureus RN4220 growth, OD600, 16 h;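 active = z-score of -3 or lower and OD600 up to 0.18 on both plates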;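 note: plate controls were untreated cells for no effect and reference antibiotic for full effect; stock transfer was 100 nL into about 80 µL; one replicate is shown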
BJeLR lethal: BJeLR cell viability loss; BJeLR (HRASV12) viability, CellTiter-Glo ATP luminescence, 48 h; reference of the scale not given here; inhibition, % (concentration not given with the values); 0.17% of 300,000 active;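 active = replicate mean above 50%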;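 note: 50 nL library stock added to about 25 µL; numbers are from one replicate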
Sa ugtP lethal: kills S. aureus RN4220 lacking UgtP; S. aureus RN4220 ugtP deletion, OD600 growth, 16 h; some inactives read as strong as hits; growth inhibition, % (no concentration beside the values); 0.54% of 330,000 active; AID 1259309;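 active = z-score under -3 and OD600 up to 0.15 on both plates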;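 note: plate controls were untreated wells for no effect and antibiotic for full effect; wells of about 80 µL received 100 nL stock; the first replicate is given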
Mtb hypoxia rep: inhibitors of hypoxia-regulated fluorescent reporter in Mycobacterium tuberculosis. M. tuberculosis hypoxia-regulated fluorescent reporter, fluorescence. fluorescence inhibition, % (concentration not given with the values). 0.1% of 300,000 active. AID 1159583;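 active = 35 to 45% if threefold the growth effect, above 45% if 1.5-fold the growth effect; inactive = the rest, general growth blockers included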;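 note: wells of about 50 µL received 100 nL stock; 0% = vehicle wells and 100% = reference inhibitor wells; whole bacteria with a GFP reporter of the hypoxia response; strong numbers were not always called active; many hits fall short of the cut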
Bead autofluor: counter-screen for toxin protease inhibitors: compound fluorescence. compound autofluorescence counterscreen, microsphere flow cytometry; hits give high values. fluorescence intensity (test concentration not listed). 3.1% of 360,000 active. AID 624483;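 active = at least 3 SD above the mean of all compounds, about 16000 in these data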;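 note: 100 nL of 1 mM stock went into each well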
PrP 5UTR inh: suppresses PrP 5' UTR mRNA reporter expression; 0.35% of 340,000 active; cell-based PrP 5' UTR mRNA reporter, plate reader; AID 488862; inhibition, % (concentration not given with the values);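 active = every replicate at 50% or more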;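 note: 0 = median of the neutral control wells; tested in H4 reporter cells; numbers are from one replicate; inactives centre near -14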
Mtb hypoxia rep growth: second read-out of Mtb hypoxia rep, no call of its own (marks repeat the call); growth inhibition, %; measured here: M. tuberculosis growth (absorbance);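 0% = vehicle and 100% = reference antibiotic; read after six days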
Starred values were filed as active, the others as inactive; . = not tested or not shown.

SMILES | Sa RN4220 lethal | BJeLR lethal | Sa ugtP lethal | Mtb hypoxia rep | Mtb hypoxia rep growth | Bead autofluor | PrP 5UTR inh
O=C(NCc1cccs1)Nc1cccs1 | -18 | 1 | -4 | 5 | 4 | 3074 | -13
CCN(CC)CCN=Cc1c(O)n(CCC2=CCCCC2)c(=O)[nH]c1=O | 4.8 | -6 | 2 | 3 | 3 | 2394 | -16
Cc1cc(=O)oc2cc(Oc3ccc([N+](=O)[O-])cc3C(F)(F)F)ccc12 | -1.2 | -2 | 0 | 5 | 10 | 2430 | -22
CCN1CCN(C(=O)CS(=O)Cc2nc(-c3ccc(OC)cc3)oc2C)CC1 (stereo unspecified) | 5.0 | 7 | -1 | -1 | 2 | 7057 | -5
C=CCOc1ccc(CNn2cn[nH]c2=S)cc1OC | 3.6 | 1 | 3 | 15 | 6 | 8082 | 2
CCc1c(C)nc(N)nc1OCC(F)(F)C(F)F | 1.6 | -1 | 3 | 7 | -2 | 10636 | -26
COc1ccc(S(=O)(=O)N(CCC(N)=O)Cc2ccco2)cc1OC | 3.7 | 6 | 5 | 11 | 8 | 4288 | -10
Cc1cccc(N=C2NC(=O)/C(=C/c3cccs3)S2)c1 | -20 | -9 | -28 | -1 | 4 | 9998 | -21
COc1ccc(S(=O)(=O)N(C)C)cc1NCC(=O)Nc1ccc(Br)c(C)c1 | -5.7 | -1 | -4 | 10 | 3 | 5151 | -23
COC(=O)c1c(NC(=O)C(=O)NCCCN2CCOCC2)sc2c1CCC2 | -0.2 | 5 | 5 | 15 | 7 | 4700 | -22
CCOc1ccc(-n2cnnn2)cc1S(=O)(=O)N1CCC(C)CC1C (stereo unspecified) | 3.6 | 1 | 3 | 3 | 3 | 4282 | -22
CC1CN(C2CCN(S(=O)(=O)Cc3ccccc3)CC2)CC(C)O1 (stereo unspecified) | 5.8 | 0 | -3 | 6 | 15 | 22746* | -5
Cc1cc(Cl)ccc1OC(C)C(=O)Nc1ccccc1N1CCOCC1 (stereo unspecified) | 5.5 | 5 | 1 | 8 | -1 | 3484 | -29
CCn1c(=O)c2cc(C(=O)Nc3ccc(OC)cc3OC)sc2c2ccccc21 | -0.8 | 23 | 1 | 8 | 5 | 4061 | -17
O=C(O)c1ccccc1-c1ccccc1C(=O)Nc1nccs1 | 7.6 | 8 | 8 | . | . | 3721 | -22
O=C(COc1cccnc1[N+](=O)[O-])Nc1cc(S(=O)(=O)N2CCCCC2)ccc1Cl | 2.4 | 1 | -5 | -16 | -8 | 3500 | -18
O=C(Nc1cccc(NC(=O)c2cccc(Cl)c2)c1)c1cccnc1 | 12 | 11 | 8 | 6 | 5 | 4429 | -18
CCC(C)(C)n1nnnc1C(c1ccccc1OC)N1CCN(C(=O)c2ccco2)CC1 (stereo unspecified) | 1.2 | 5 | 1 | -7 | 6 | 5335 | -9
CC(=O)Nc1ccc(NS(=O)(=O)c2ccc(-c3cnc(C4CC4)o3)cc2)cc1 | 9.6 | 1 | 6 | 12 | 5 | 5060 | -5
Cc1ccccc1C1CC(c2cccs2)Nc2nnnn21 (stereo unspecified) | 2.8 | 6 | 5 | 8 | 0 | 3236 | 11

Continued (two carried over from the part before).
SMILES | Sa RN4220 lethal | BJeLR lethal | Sa ugtP lethal | Mtb hypoxia rep | Mtb hypoxia rep growth | Bead autofluor | PrP 5UTR inh
CC(=O)Nc1ccc(NS(=O)(=O)c2ccc(-c3cnc(C4CC4)o3)cc2)cc1 | 9.6 | 1 | 6 | 12 | 5 | 5060 | -5
Cc1ccccc1C1CC(c2cccs2)Nc2nnnn21 (stereo unspecified) | 2.8 | 6 | 5 | 8 | 0 | 3236 | 11
Cc1ccc(Nc2cnn(C34CC5CC(CC(CC(=O)O)(C5)C3)C4)c(=O)c2Cl)c(Cl)c1 | -1.4 | 4 | 8 | 1 | 7 | 4123 | -13
CCc1ccc(OCC(=O)NNC(=O)c2nn(CC)c(=O)c3ccccc23)cc1 | 5.8 | -6 | 5 | 2 | 2 | 2998 | -14
O=C(N[C@@H](Cc1ccc(O)cc1)C(=O)O)c1ccc(C(F)(F)F)cc1 | . | 6 | . | . | . | 3695 | -25
COC(=O)C1=C(c2ccc(OC)c(OC)c2)CC2CCC1N2C(=O)NCC1CC1 (stereo unspecified) | 9.0 | . | 14 | 9 | -7 | . | .
CC(C)(C)c1csc(NC(=O)c2ccc(Cl)s2)n1 | 5.7 | -1 | -5 | . | . | 2419 | -63
COc1cc(C(=O)N2CCN(C(=O)C3COc4ccccc4O3)CC2)cc(OC)c1OC (stereo unspecified) | 2.9 | -12 | 13 | 4 | 1 | 5781 | -21
O=C(CC(=O)Nc1cccnc1)Nc1cccnc1 | -0.5 | 3 | 12 | 9 | 5 | 3181 | -7
O=C(c1ccc(NS(=O)(=O)c2ccc3[nH]c(=O)[nH]c3c2)cc1)N1CCCCC1 | 1.9 | -6 | 6 | 1 | -1 | . | -20
CC(C)CNC(=O)COC(=O)CCC(=O)c1ccc(F)cc1 | 4.1 | 1 | 5 | 0 | 1 | 9140 | -7
N#Cc1c(Nc2ccccc2)s[nH]c1=O | 7.1 | 1 | 12 | 14 | 1 | 4380 | -18
O=C(Nc1ccc(S(=O)(=O)Nc2cnc3ccccc3n2)cc1)c1ccc(Br)o1 | 4.1 | -2 | 7 | 5 | 1 | 4131 | -15
COC(=O)Oc1ccc(C=NNC(=O)CSCc2ccc(Cl)cc2)cc1OC | -7.2 | . | -11 | 1 | 5 | . | .
COc1cc(C2NC(=S)NC3=C2CCc2ccccc23)cc(OC)c1OC (stereo unspecified) | -2.1 | -7 | 0 | 7 | -7 | 9444 | -22
Fc1ccc(Oc2cnc3ccccc3n2)cc1 | 3.2 | 2 | 3 | -9 | 13 | 2246 | -19
O=C(CSc1nnc(CNC(=O)c2c(F)cccc2F)o1)NCCc1ccccc1 | 3.5 | 1 | 7 | 12 | 5 | 6022 | 2
CCOc1ccc(C=NNC(=O)c2c(-c3ccccc3)noc2C)cc1 | 2.7 | . | 7 | 7 | 2 | . | .
Cc1cc(OCC(=O)NCCc2cccc(F)c2)c2c(C)cc(=O)oc2c1 | 9.4 | -5 | 18 | 0 | -4 | 4181 | -12
Cc1ccccc1CN1[C@@H](C(C)C)COCCS1(=O)=O | . | -5 | . | . | . | 3824 | -4
Cc1cc(C)c(C)c(S(=O)(=O)N(C)C2CCN(C)CC2)c1C | -3.1 | 11 | 12 | 8 | 4 | 3632 | -8
Nc1c(C(=O)c2cccs2)oc2ccccc12 | 7.4 | 10 | -6 | 1 | -4 | 8717 | -40
CCNC(=S)N1CCN(S(=O)(=O)c2ccc(C)cc2)CC1 | 9.9 | -29 | 6 | 5 | -9 | 3329 | 1
CCOc1ccc(-c2c(C(=O)N/N=C/c3ccc(Cl)cc3)nnn2-c2nonc2N)cc1 | . | -2 | . | . | . | 5048 | -27
COc1cc(C(=O)NCCc2ccc(F)cc2)c([N+](=O)[O-])cc1OC | 4.5 | 2 | 2 | 0 | 16 | 2495 | -22
CC1CN(C(=O)c2ccc(S(=O)(=O)Nc3ccccc3Cl)cc2)CC(C)O1 (stereo unspecified) | 6.8 | -1 | 1 | 5 | 4 | 5734 | -19
O=C(NCC(=O)N(c1cccnc1)C(C(=O)NC1CCCC1)c1cccs1)c1ccco1 (stereo unspecified) | 6.5 | 20 | 15 | 1 | -6 | 4247 | -12
CC(=O)n1c(-c2ccccc2)c(-c2ccccc2)n(C)c1=O | 1.6 | 2 | 5 | 14 | 11 | 5888 | -35
COc1ccc(NC(=O)CCNS(=O)(=O)c2cc(Br)cnc2N)cc1OC | 1.5 | 9 | 3 | 5 | -1 | 5698 | -11
Cc1c(NC(=O)[C@@H](NC(=O)c2ccc(Cl)c([N+](=O)[O-])c2)C(C)C)c(=O)n(-c2ccccc2)n1C | 1.5 | . | 5 | 5 | 3 | 4133 | 44
COc1ccc(NC(=O)CSc2ccc(-c3cccnc3)nn2)c(OC)c1 | -0.8 | -12 | 13 | 8 | 8 | . | -15
CCOC(=O)C(=CNc1ccc(Oc2cncc(Cl)c2)nc1)C(=O)OCC | 1.9 | -8 | 12 | 0 | 2 | 4480 | -4
Cn1c(CCCNC(=O)c2cccs2)nc2ccccc21 | 7.2 | 3 | 4 | 10 | 6 | 6201 | -25
Cc1nnsc1C(=O)N/N=C/c1c(F)cccc1Cl | . | -19 | . | . | . | 3903 | -24
Cc1ccc(C(=O)NCCCc2ccccc2)s1 | 10 | 3 | 11 | . | . | 10648 | -72
CCN(C(=O)c1ccc2c(OC)n(CC)nc2c1)c1ccc(OC)cc1 | 6.7 | -2 | 2 | 20 | 8 | 3908 | -20
O=C1CN(c2ccccc2)C(=S)N1C(=O)c1ccc(Br)cc1 | 12 | -5 | 55 | 15 | 1 | 3907 | -72
C=C(C)CSc1nnc([C@@H]2CCCN2C(=O)OC(C)(C)C)o1 | 2.6 | -1 | 6 | 6 | 5 | 3195 | -26
CC(C)(C)NC(=O)c1cnn2c1NC(c1ccc(F)cc1)CC2C(F)(F)F (stereo unspecified) | 2.9 | -11 | 3 | . | . | 3600 | -14
CC1CC=C(O)C12OCC(C)(C)CO2 (stereo unspecified) | 6.7 | . | 11 | 7 | 6 | 2893 | -18
COc1ccc(C)cc1NC(=O)C1CCN(C(=O)c2ccco2)CC1 | 4.0 | 15 | 16 | 0 | -9 | 3525 | -7
CCOc1nc(NCCO)nc(Nc2cc(Cl)ccc2OC)n1 | 4.0 | -15 | -5 | 0 | 2 | 2057 | -12
CCOC(=O)CN1C(=O)NC(c2cccc(F)c2)C(C(C)=O)=C1C (stereo unspecified) | -2.9 | . | 0 | -1 | -2 | . | .
O=C1/C(=C/c2ccncc2)SC(=S)N1N1CCOCC1 | 5.0 | 4 | 5 | 10 | 12 | 3103 | -35
O=Cc1cnc(N2CCCCC2)s1 | 3.4 | 3 | -8 | 8 | 5 | 4494 | -15
c1ccc2occc2c1 | 1.4 | . | 1 | . | . | 5262 | -16
Cc1ccccc1C(=O)NC1CCN(C(=O)Nc2ccc(F)cc2)CC1 | -0.8 | -2 | 10 | 2 | 5 | 6127 | -16
Cc1nnc(SCC(=O)NC2CCCCCC2)n1N | 3.3 | . | 8 | 1 | 0 | 3847 | -15
CNC(=S)NNc1nc(C)cc(C)n1 | 8.5 | -6 | 4 | -5 | 0 | 3329 | -2
COc1ccccc1N(CC(=O)NCCSCc1cccc(C)c1)S(=O)(=O)c1ccccc1 | 0.4 | -5 | -2 | 1 | 7 | 6385 | -9
O=C(C1CC1)N1CCc2cc(Br)cc(S(=O)(=O)NCCCN3CCCCC3)c21 | 2.9 | -3 | 13 | 1 | 7 | 6082 | -20
CCC(=O)NCCc1nc2ccccc2n1Cc1ccc(C)cc1 | 7.6 | 3 | -12 | 3 | 6 | 13175 | -23
Cc1csc2nc(O)c(C(=O)NCCN3CCOCC3)c(=O)n12 | 0.9 | 9 | 7 | 10 | 0 | 5460 | -32

Another view of part of the listing above:
Values in the order: Sa RN4220 lethal, BJeLR lethal, Sa ugtP lethal, Mtb hypoxia rep, Mtb hypoxia rep growth, Bead autofluor, PrP 5UTR inh
CC1CC=C(O)C12OCC(C)(C)CO2 (stereo unspecified)
  6.7, ., 11, 7, 6, 2893, -18
COc1ccc(C)cc1NC(=O)C1CCN(C(=O)c2ccco2)CC1
  4.0, 15, 16, 0, -9, 3525, -7
CCOc1nc(NCCO)nc(Nc2cc(Cl)ccc2OC)n1
  4.0, -15, -5, 0, 2, 2057, -12
CCOC(=O)CN1C(=O)NC(c2cccc(F)c2)C(C(C)=O)=C1C (stereo unspecified)
  -2.9, ., 0, -1, -2, ., .
O=C1/C(=C/c2ccncc2)SC(=S)N1N1CCOCC1
  5.0, 4, 5, 10, 12, 3103, -35
O=Cc1cnc(N2CCCCC2)s1
  3.4, 3, -8, 8, 5, 4494, -15
c1ccc2occc2c1
  1.4, ., 1, ., ., 5262, -16
Cc1ccccc1C(=O)NC1CCN(C(=O)Nc2ccc(F)cc2)CC1
  -0.8, -2, 10, 2, 5, 6127, -16
Cc1nnc(SCC(=O)NC2CCCCCC2)n1N
  3.3, ., 8, 1, 0, 3847, -15
CNC(=S)NNc1nc(C)cc(C)n1
  8.5, -6, 4, -5, 0, 3329, -2
COc1ccccc1N(CC(=O)NCCSCc1cccc(C)c1)S(=O)(=O)c1ccccc1
  0.4, -5, -2, 1, 7, 6385, -9
